Assay outcomes from PubChem.
Yeast UUG start: modulators of yeast start codon fidelity, primary screen, whole organism, S. cerevisiae, single point, plate reader; actives 0.13% (n = 350,000); S. cerevisiae UUG-firefly luciferase reporter, luminescence/redox ratio; AID 602363, 2012; activity score, % at 18.7 µM;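 active = replicate mean at a twofold rise or more, about +100% in these data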;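 note: firefly luciferase made from a UUG start codon reports start codon fidelity; reporter light over untreated wells divided by growth signal over untreated wells; some hits fall short of that in this replicate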
MT1-MMP act inh: blockers of MT1-MMP proenzyme processing, primary screen, HT1080 RFP-PRO-GFP cells, GFP/RFP fluorescence. Matrix metalloproteinase-14 (Homo sapiens), P50281. GFP/RFP ratio fluorescence, overnight; percent of plate control window, DMSO zero. GFP/RFP ratio change, % at 20 µM. actives 0.061% (n = 360,000);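 active = GFP/RFP ratio change of at least 30% with cell ATP level not reduced by more than half and red fluorescence within 50% of control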; note: strong numbers were not always called active
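Material: RFP-PRO-GFP reporter HT1080 cells. Dosing: single-point 20 µM compound, 1% DMSO. Controls: DMSO and RFP-L50D-GFP cell wells. Timing: cells overnight before dosing, compound overnight, 37 °C, 5% CO2. Measure: GFP/RFP fluorescence ratio.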
CSC inhib: cancer stem cell viability inhibitors, primary screen, luminescence; cancer stem cell-like cells viability; inhibition, % at 7.5 µM; actives 1.1% (n = 300,000); AID 2717, 2010;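 active = mean at 75% or more and at least half the replicates too; tested in HMLE shEcad cells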;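 note: 0% = median of negative and 100% = median of positive control wells; the first replicate is given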
eIF4H inh: human eIF4H binding inhibitors, primary screen, translation initiation inhibitor project, biochemical, uHTS, fluorescence polarization; Eukaryotic translation initiation factor 4H (Homo sapiens), Q15056; eIF4H fluorescence polarization binding assay; inhibition, % at 35 µM; actives 0.94% (n = 290,000);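 active = 50% or more with normal probe brightness, or confirmed in later tests; about a fifth of its hits are not listed in these tables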;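 note: calls also rest on retests at 20 µM and on dose response follow-up; 0% = protein and probe with vehicle and 100% = probe without protein; strong numbers were not always called active; many hits fall short of the cut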
HIV Env fusion: inhibitors of HIV-1 Env-driven cell-cell fusion, primary screen, HeLa-JRFL effector, CEM21 target cells, luciferase | AID 651610, 2012 | actives 1.1% (n = 360,000) | inhibition, % at 12.3 µM;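 active = mean replicate inhibition score of at least 50 and every replicate individually at or above 50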;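 note: 0% = plate neutral controls and 100% = maraviroc near 300 nM; one replicate is shown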
PABP FP inh: PABP poly(A) RNA binding inhibitors, primary screen, biochemical, fluorescence polarization, uHTS. Polyadenylate-binding protein 1 (Homo sapiens), P11940. inhibition, % at 35 µM. actives 1% (n = 290,000);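 active = 50% or more with normal probe brightness, or confirmed in later tests; about a fifth of its hits are not listed in these tables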;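 note: calls also rest on retests at 20 µM and on dose response follow-up; controls were probe without protein and protein plus probe with vehicle; some compounds called inactive have numbers as strong as hits; many hits fall short of the cut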
Target sequence (P11940 whole entry, looked up): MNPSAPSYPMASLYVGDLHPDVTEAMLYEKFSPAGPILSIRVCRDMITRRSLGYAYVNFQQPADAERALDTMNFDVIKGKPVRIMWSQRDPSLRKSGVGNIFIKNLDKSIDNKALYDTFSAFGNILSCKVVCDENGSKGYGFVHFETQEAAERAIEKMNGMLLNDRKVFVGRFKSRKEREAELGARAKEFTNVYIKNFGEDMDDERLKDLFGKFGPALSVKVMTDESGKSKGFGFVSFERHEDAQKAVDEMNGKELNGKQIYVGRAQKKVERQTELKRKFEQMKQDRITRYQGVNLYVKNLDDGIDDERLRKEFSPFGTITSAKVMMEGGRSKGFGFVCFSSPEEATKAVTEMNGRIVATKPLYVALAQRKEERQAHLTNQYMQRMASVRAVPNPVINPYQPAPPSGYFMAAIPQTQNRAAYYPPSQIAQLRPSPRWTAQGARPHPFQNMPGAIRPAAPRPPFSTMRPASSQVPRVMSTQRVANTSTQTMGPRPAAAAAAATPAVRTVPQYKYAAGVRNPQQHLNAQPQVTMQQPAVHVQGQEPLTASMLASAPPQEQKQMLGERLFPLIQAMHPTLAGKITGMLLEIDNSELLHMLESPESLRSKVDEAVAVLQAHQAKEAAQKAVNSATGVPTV
Rce1 inhib: yeast Rce1p protease inhibitors, primary screen, biochemical, fluorescence, cell-free homogeneous; actives 0.27% (n = 290,000); calls only; CAAX prenyl protease 2 (Saccharomyces cerevisiae (strain ATCC 204508 / S288c)), Q03530; yeast membranes, quenched prenylated peptide cleavage fluorescence;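 active = fall in fluorescence gain of 50% or more versus controls, with final raw signal at or below 3038400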;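 note: plate controls were neutral control wells for no effect and wells lacking membranes for full effect; tested at 10 µM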
eIF4H inh retest: also measured in eIF4H inh; calls as there; inhibition, %; compound at 20 µM; confirmation average;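 mean of two retest wells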
PABP FP inh retest: recorded beside PABP FP inh, whose call it bears; inhibition, %; compound at 20 µM; confirmation repeats;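 mean of two retest wells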
MT1-MMP act inh RFP: further read-out of MT1-MMP act inh, marked with its call; RFP signal change, %; measured here: RFP expression control read;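 0 = vehicle wells; hits needed this value within 50% of zero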
Starred values were filed as active, the others as inactive; i = inactive; . = no result given.

SMILES	Yeast UUG start	MT1-MMP act inh	MT1-MMP act inh RFP	CSC inhib	eIF4H inh	HIV Env fusion	PABP FP inh	Rce1 inhib	others
CCCCN(C)CCN1C(=O)C2C(C(=O)Nc3ccc(Cl)cc3)C3C=CC2(O3)C1C(=O)NC1CCCCC1 (configuration not stated)	4	2	1	-11	-6	12	-9	.
COc1ccc(-c2cc3cc(OC)c(OC)cc3cn2)cc1OC	.	15	2	-4	.	-40	.	i
COc1ccc(CCNC(=O)CSCc2ccc(F)cc2)cc1OC	-1	-1	1	9	14	15	0	i
CCn1c(CSCc2ccc(Cl)cc2)n[nH]c1=S	.	10	-4	5	6	14	49	i
CCn1c(SCC(=O)Nc2cc(C)on2)nnc1-c1cccnc1	.	3	7	.	2	.	-4	i
COc1ccc(C)cc1NC(=O)C/C(C)=N/NC(=O)Cc1cccc2ccccc12	-12	0	0	.	3	-2	9	i
O=c1cc2c(nn1Cc1ccccc1)-c1ccccc1CC2	.	2	3	0	6	9	2	i
CN(C(=O)Nc1ccccc1)C1CCCc2ccccc21 (configuration not stated)	-3	0	3	5	-6	-20	-9	i
Cc1cc(C[n+]2cc(Cl)ccc2N)c2ncccc2c1	0	-1	-1	5	-12	4	4	i
O=C(N/N=C/c1cccs1)c1cncc(Br)c1	.	3	3	-12	3	-1	-4	i
O=C(/C=C/Nc1ccccc1F)c1ccc(Br)cc1	.	3	2	17	-2	-267	-6	i
Cc1ccc(N=C(NOCc2ccc(Cl)cc2Cl)c2nonc2N)c(C)c1	.	-6	-10	1	-4	.	-4	i
COc1ccc2c(c1)nc(SCC(O)c1ccccc1)n2C (configuration not stated)	-6	2	4	-5	2	-9	12	i
Cc1ccc(CNC(=O)CN(c2cccc([N+](=O)[O-])c2)S(=O)(=O)c2ccccc2)cc1	-3	0	-7	-11	7	.	-9	i
Nc1nc(C23CC4CC(CC(C4)C2)C3)[nH]c(=O)n1	-1	3	3	-10	-4	-17	0	i
CCNc1nc(Cl)nc(NC2CCCCC2)n1	9	-1	-2	-12	-1	4	16	i
CC(Sc1nncn1-c1ccccc1)C(=O)Nc1cccc([N+](=O)[O-])c1 (configuration not stated)	.	1	-2	20	-10	1	-1	i
Cc1cc(C)c2nc(SCC(=O)N3CC(=O)Nc4ccccc43)c(C#N)cc2c1	-11	-70	-12	26	24	-225	2	i
O=C(NCCCN1CCOCC1)C1Cc2c(ccc3ccccc23)O1 (configuration not stated)	-1	2	1	.	2	22	-3	i
Cc1nc([N+](=O)[O-])cn1Cc1cccc([N+](=O)[O-])c1	.	-2	1	-2	-2	-5	-2	i
CCOC(=O)C1CCCN(c2cc(NCCCO)c([N+](=O)[O-])c3nonc23)C1 (configuration not stated)	.	.	.	-10	-4	-2	0	i
O=C1CC(N2CCSCC2)C(=O)N1c1cccc(Br)c1 (configuration not stated)	-13	1	2	-7	-16	3	-13	i
CCCN(CCC)C(C)C(=O)NCC1(c2ccccc2)CCCC1 (configuration not stated)	.	-4	-3	-6	3	27	-2	i
O=C(CCC1CCCCC1)Nc1nnc(C(F)(F)F)s1	-6	2	-5	.	0	-28	9	i

For convenience, part of the list above:
SMILES	Yeast UUG start	MT1-MMP act inh	MT1-MMP act inh RFP	CSC inhib	eIF4H inh	HIV Env fusion	PABP FP inh	Rce1 inhib	others
COc1ccc2c(c1)nc(SCC(O)c1ccccc1)n2C (configuration not stated)	-6	2	4	-5	2	-9	12	i
Cc1ccc(CNC(=O)CN(c2cccc([N+](=O)[O-])c2)S(=O)(=O)c2ccccc2)cc1	-3	0	-7	-11	7	.	-9	i
Nc1nc(C23CC4CC(CC(C4)C2)C3)[nH]c(=O)n1	-1	3	3	-10	-4	-17	0	i
CCNc1nc(Cl)nc(NC2CCCCC2)n1	9	-1	-2	-12	-1	4	16	i
CC(Sc1nncn1-c1ccccc1)C(=O)Nc1cccc([N+](=O)[O-])c1 (configuration not stated)	.	1	-2	20	-10	1	-1	i
Cc1cc(C)c2nc(SCC(=O)N3CC(=O)Nc4ccccc43)c(C#N)cc2c1	-11	-70	-12	26	24	-225	2	i

More results follow.
SMILES	Yeast UUG start	MT1-MMP act inh	MT1-MMP act inh RFP	CSC inhib	eIF4H inh	HIV Env fusion	PABP FP inh	Rce1 inhib	others
C(=C\c1ccccc1)/C=N/N1CCN(c2ccccn2)CC1	.	-1	-4	-3	-2	.	8	i
OC(COCc1ccc(Cl)cc1)CN1CCc2ccccc2C1 (configuration not stated)	.	0	1	28	-13	17	-20	i
O=c1oc2cc(Oc3ccc(C(F)(F)F)cc3[N+](=O)[O-])ccc2c2c1CCCC2	-8	-2	4	1	-6	.	-7	i
Cc1cc(NC(=O)COC(=O)CCNS(=O)(=O)c2cccc(C(F)(F)F)c2)no1	.	5	11	-16	-5	20	4	i
O=C(Nc1ccc2c(c1)OCCO2)C1CCCN(S(=O)(=O)Cc2ccccc2)C1 (configuration not stated)	-3	-1	-2	-11	0	.	22	i
CCn1nc(C(=O)OCC(=O)NCC(C)C)c2ccccc2c1=O	.	0	-1	-4	-8	14	46	i
S=C(Nc1ccccc1)Nc1cccc(Br)c1	.	-1	4	.	-3	3	2	i
COc1ccc(C(=O)Nc2cccc(/C(C)=N\NC(=O)c3ccoc3C)c2)cc1OC	-9	6	2	.	-8	0	6	i
O=c1oc(-c2cccc(C(F)(F)F)c2)nn1-c1ccc(C(F)(F)F)cn1	-16	6	0	-13	-2	5	-11	i
COc1ccc(-c2nc3c(C)cc(Br)cn3c2Cc2cccc(F)c2)cc1OC	-10	-5	-6	.	.	-5	.	.
CCOC(=O)/C(C#N)=C/c1cn(CCC(=O)O)nc1-c1cccc(Cl)c1	.	0	1	-14	-7	9	0	i
COc1ccc(-n2nnc3c(=O)n(CC(=O)N4CCCCC4)cnc32)cc1	3	0	3	-3	-1	-22	12	i
Cc1ccc(NC(=O)CN(C)C(=O)c2ccc(NC(=O)CC3SC(N4CCCC4)=NC3=O)cc2)cc1 (configuration not stated)	.	5	2	.	.	-6	.	i
COc1ccc(CCNC(=O)Nc2nc(C(N)Cc3ccccc3)cs2)cc1OC (configuration not stated)	-19	-7	-3	.	.	38	.	.
Cc1ccsc1C(=O)OCC(=O)N1CCOCC1	-6	4	2	4	10	-12	12	i
CCN(CC(=O)Nc1c(F)cccc1F)C(=O)CCc1nc2sc3c(c2c(=O)[nH]1)CCCC3	-16	-4	3	-11	.	5	.	i
CNC(=S)N(CCO)Cc1cc2cc3c(cc2[nH]c1=O)OCO3	-12	6	2	10	-12	-12	-3	i
O=C(O)CN1C(=O)C(=O)N(Cc2ccc(Cl)cc2Cl)C1=O	-9	-4	-2	-3	-8	-20	-11	i
O=C(NCc1ccco1)C(C(=O)c1ccccc1)n1ccccc1=O (configuration not stated)	11	1	3	7	-2	1	-2	i
CC(=O)NC1(C(F)(F)F)N=C(c2ccccc2)NC1=O (configuration not stated)	.	3	5	-10	4	2	3	i
Cc1ccccc1Nc1nc(N)nc(COC(=O)c2cccn2C)n1	-29	7	5	.	4	-135	-10	i
CCC(C)NC(=O)CO/N=C/c1ccccc1OC(F)F (configuration not stated)	-15	-1	2	-5	-5	4	-2	i
Cc1c(S(=O)(=O)N2CCN(C(c3ccccc3)c3ccccc3)CC2)c(=O)n(C)c(=O)n1C	10	-2	2	7	-8	-28	-15	i
CCCCC(=O)NNC(=S)NC(=O)c1ccc([N+](=O)[O-])cc1	.	5	5	-9	50	-2	-16	i	eIF4H inh retest=-12;PABP FP inh retest=3

Grouped by structure, the entries above containing a COOH group.
SMILES	Yeast UUG start	MT1-MMP act inh	MT1-MMP act inh RFP	CSC inhib	eIF4H inh	HIV Env fusion	PABP FP inh	Rce1 inhib	others
CCOC(=O)/C(C#N)=C/c1cn(CCC(=O)O)nc1-c1cccc(Cl)c1	.	0	1	-14	-7	9	0	i
O=C(O)CN1C(=O)C(=O)N(Cc2ccc(Cl)cc2Cl)C1=O	-9	-4	-2	-3	-8	-20	-11	i

Next section:
SMILES	Yeast UUG start	MT1-MMP act inh	MT1-MMP act inh RFP	CSC inhib	eIF4H inh	HIV Env fusion	PABP FP inh	Rce1 inhib	others
CCCOC(=O)CSC1=C(C#N)C(c2ccc3c(c2)OCO3)CC(=O)N1 (configuration not stated)	-14	-4	-3	-5	-1	2	-7	i
N#CC1=C(S)N(c2ccccc2)C(c2ccc(-c3ccccc3Cl)o2)NC1=O (configuration not stated)	.	-10	0	.	8	4	0	i
COCc1cc(CN2CCN(Cc3ccsc3)C(CCO)C2)ccc1OC (configuration not stated)	.	-3	1	-9	-8	-2	-3	i
CN(c1ccc([N+](=O)[O-])cc1/C=N/NC(=O)COc1ccccc1)C1CCCCC1	-2	1	-2	-1	-12	23	1	i
O=C(CN1CCN(c2ccc(F)cc2)CC1)Nc1ccccc1Br	-5	2	2	.	2	-1	-4	i
Cc1cccc(-n2nnc3c(=O)n(Cc4ccccn4)cnc32)c1	.	-2	1	-5	-7	11	-2	i
O=C(CCCN1C(=O)c2cccc3cccc(c23)C1=O)N1CCN(c2ccccc2)CC1	.	-3	3	4	5	22	15	i
CCc1ccc2nc(NC(=O)CCCc3cccs3)sc2c1	-19	3	1	0	3	-25	-5	i
Clc1ccc(OCCCN2CCCCC2)c(Br)c1	1	2	7	7	1	-3	7	i
O=C(Nc1ccccc1)Nc1ccc2ncoc2c1	.	2	-3	-8	8	-4	1	i
O=C(Nc1ccccc1)c1cc(-n2cnnc2)ccc1Cl	-19	4	3	-3	-3	12	0	i
Cc1ccc(/C=C/c2nc3sc(C(=O)O)c(C)c3c(=O)[nH]2)cc1[N+](=O)[O-]	20	5	3	7	5	2	34	i
CC(C)(C)NC(=S)N1CCC2CC1c1cc(-c3ccc4c(c3)OCO4)ccc12 (configuration not stated)	1	6	8	.	.	-3	.	.
COc1ccc(CCNS(=O)(=O)c2ccc3c(c2)NC(=O)CO3)cc1OC	-9	3	2	-8	-8	-33	-1	i
Nc1nc2nn(-c3ccccc3)nc2c(=O)[nH]1	-19	2	3	1	-4	-13	4	i
CCCCc1c(O)nc(SCC(=O)N2CCOCC2)n(-c2ccc(OC)cc2)c1=O	-12	0	2	-12	-10	1	5	.
Cc1nnc2n1N=C(c1ccc(OC(F)F)cc1)C(C)S2 (configuration not stated)	-17	4	2	5	5	-26	-4	i
O=C(c1cnn(C(=O)c2ccccc2)c1)c1ccccc1O	-7	-5	0	-5	1	4	3	i
Cc1cccc(Nc2c(-c3ccc(O)cc3)nc3ncccn23)c1	.	3	2	14	-14	17	-5	i
CN(c1ccccc1)S(=O)(=O)c1ccc(NC(=S)NC(=O)C2CC2)cc1	.	-1	-2	-12	-11	-24	-3	i
O=C(Oc1ccccc1)c1cccnc1Oc1ccccc1	.	-2	1	-12	-9	8	-12	i
CC(NCc1ccc(F)cc1)C(=O)NC1CCCCC1 (configuration not stated)	.	-4	-1	-10	-2	14	2	i
Cc1ccc(C(=O)C2C(=O)c3ccccc3C2=O)cc1	-4	-183	12	-4	-10	.	2	i
CCN(CC(=O)NCc1ccc(Cl)cc1)C(=O)CNS(=O)(=O)c1ccc(NC(C)=O)cc1	-9	-1	2	-4	4	-12	5	i
CCOC(=O)[C@@H]1[C@H]2COc3ccc(Br)cc3[C@@H]2N2C(=O)N(c3cccc(F)c3)C(=O)[C@@]12C	-16	1	-2	2	-6	75*	-6	i
O=c1cc(CO)occ1OCc1cccc(F)c1	-18	1	5	-7	11	-39	1	i
